High-throughput results deposited in PubChem BioAssay by National Center for Advancing Translational Sciences (NCATS).
SARS PLpro yeast: blocks SARS-CoV papain-like protease in a yeast assay. S. cerevisiae expressing SARS-CoV PLpro, growth rescue; control for the full effect not named in the record. AID 485353. Potency, µM (doses to about 32.9 µM), for inactives: at the highest dose activity, positive = growth rescue. hit rate 0.19% among 330,000; note: 0% is about no effect; nearly all actives have a fitted effect of over 55% in size; growth read by luminescence after 48 h
2A StopGo: lowers the luciferase signal of an FMDV 2A StopGo reporter. Potency, µM (titrated, usually from 57.9 µM), inactives show at the highest dose signal change, negative = less light. human cells with a luciferase reporter of 2A StopGo recoding; control for the full effect not named in the record. hit rate 1.2% among 410,000; active = well fitted falling curve with a large enough effect; inconclusive = small, poorly fitted or top-dose-only effect; inactive = no such curve, though single readings can be large or run the other way; tested in HEK293T cells; note: % is set by controls: 0 for no effect and ±100 for the full control effect; nearly all actives have a fitted effect of over 45% in size; luciferase light after 4 h
NS1 function inh: inhibitors of influenza NS1 protein function | AID 2326 | Potency, µM (series often up to 46.1 µM), for inactives: at the highest dose activity, positive = more growth | S. cerevisiae slowed by influenza A NS1, growth recovery by OD600 | hit rate 0.4% among 270,000; note: actives are rising curves; nearly all actives have a fitted effect of over 50% in size
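OD600 was taken as the measure of yeast growth restored by compound in an NS1-expressing S. cerevisiae strain. Cells had been washed out of glucose medium and diluted 1:100 into galactose -URA medium, pH 6.0.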
RE007 growth inh: less growth of the S. pombe RE007 Vpr strain; hit rate 0.21% among 360,000; S. pombe RE007 Vpr strain, BacTiter-Glo ATP luminescence, 24 h; control for the full effect not named in the record; Potency, µM (series often up to 92.2 µM), inactives show at the top dose activity change, negative = less growth; active = well fitted falling curve with a large enough effect; inconclusive = small, poorly fitted or top-dose-only effect; inactive = no such curve, though single readings can be large or run the other way;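 note: % is set by controls: 0 for no effect and ±100 for the full control effect; nearly all actives have a fitted effect of over 50% in size; the assay follows cell death caused by Vpr and the record does not say whether a fall means rescue or toxicity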
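Fission yeast RE007 carrying one integrated HIV-1 vpr copy, seeded at OD 0.01 in PMG+AL medium with 23 nL pinned compound. Grown 24 h at 30 degrees; viability read by BacTiter-Glo luminescence after 5 min.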
Cruzain Triton: inhibitors of Trypanosoma cruzi cruzain with detergent; P25779; purified cruzain, Z-FR-AMC fluorescence, 0.01% Triton; Potency, µM, for inactives: max response, negative = inhibition, usual class: inhibitors; hit rate 0.43% among 200,000; AID 1478; active = well fitted curve in the direction sought with a large enough effect; inconclusive = small, poorly fitted or top-dose-only effect, or another doubt; inactive = no such curve, though single readings can be large; an effect the other way counts as inactive or inconclusive;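 note: plate controls were neutral wells for no effect and buffer without enzyme for full effect; nearly all actives have a fitted effect of over 40% in size; top concentration of the series not given in the record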
Target sequence (P25779 123-467 limits assumed): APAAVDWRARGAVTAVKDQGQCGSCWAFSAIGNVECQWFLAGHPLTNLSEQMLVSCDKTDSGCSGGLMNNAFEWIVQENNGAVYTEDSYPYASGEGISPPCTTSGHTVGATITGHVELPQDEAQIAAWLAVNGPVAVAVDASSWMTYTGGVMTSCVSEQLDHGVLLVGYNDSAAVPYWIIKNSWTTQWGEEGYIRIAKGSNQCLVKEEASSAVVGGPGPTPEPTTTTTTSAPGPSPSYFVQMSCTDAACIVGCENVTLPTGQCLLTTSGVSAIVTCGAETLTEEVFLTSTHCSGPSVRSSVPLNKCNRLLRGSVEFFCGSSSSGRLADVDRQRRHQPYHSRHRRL
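Detergent-containing run (0.01% Triton X-100) in acetate buffer pH 5.5 with 5 mM DTT: enzyme at 1.5 nM final, 15 min compound preincubation at room temperature, then 2 uM Z-FR-AMC substrate. Activity taken as 60 s fluorescence increase at 360/450 nm.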
Marburg entry inh: Marburg virus entry inhibition; Marburg virus pseudotyped entry inhibition, cell reporter; control for the full effect not named in the record; about a third of the inactives were read at about 46 µM; Potency, µM (series often up to 37.8 µM), for inactives: at the highest dose activity change, negative = inhibition, most hits filed as inhibitors; hit rate 1.8% among 300,000; active = well fitted inhibition curve with a large enough effect; inconclusive = small, poorly fitted or top-dose-only effect, or effect the other way; inactive = flat fitted curve, though single readings scatter; tested in HEK293 cells; about a fifth of its hits are not listed in these tables; note: % is set by controls: 0 for no effect and ±100 for the full control effect; luciferase read-out
Cruzain inh noDet: blocks cruzain activity in detergent-free assay; purified cruzain, Z-FR-AMC fluorescence, no detergent; Potency, µM, inactives show max response, negative = inhibition, actives largely listed as inhibitors; hit rate 2.3% among 200,000; AID 1476; active = well fitted curve in the direction sought with a large enough effect; inconclusive = small, poorly fitted or top-dose-only effect, or another doubt; inactive = no such curve, though single readings can be large; an effect the other way counts as inactive or inconclusive;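 note: plate controls were enzyme without inhibitor for no effect and buffer without enzyme for full effect; nearly all actives have a fitted effect of over 40% in size; top concentration of the series not given in the record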
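Purified cruzain at 1.5 nM, pre-incubated 15 min with compound at room temperature in 100 mM sodium acetate pH 5.5, 5 mM DTT, 0.00005% Triton X-100. Reaction started with 2 uM Z-FR-AMC; AMC fluorescence increase over 60 s gives rate.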
Lassa entry inh: blocks Lassa virus binding to or entry into cells | Lassa virus pseudotype entry inhibition, cell reporter; control for the full effect not named in the record | Potency, µM (series often up to 37.9 µM), for inactives: at the top dose activity change, negative = inhibition, usual class: inhibitors | hit rate 1.2% among 300,000; active means well fitted inhibition curve with a large enough effect; inconclusive means small, poorly fitted or top-dose-only effect, or effect the other way; inactive means flat fitted curve, though single readings scatter; tested in HEK293 cells; note: % is set by controls: 0 for no effect and ±100 for the full control effect; nearly all actives have a fitted effect of over 50% in size; luciferase read-out
An asterisk follows results filed as active; ? = inconclusive; . = no result given; & = joins results of further samples; [ ] = dose if it differs, or a comment. Unless noted, calls come from the whole dose curve; as a rule, active means well fitted rising curve with a large enough effect; inconclusive means small, poorly fitted or top-dose-only effect; inactive means no such curve, though single readings can be large or run the other way. Potency is the fitted concentration of half-maximal effect.

Molecule	SARS PLpro yeast	2A StopGo	NS1 function inh	RE007 growth inh	Cruzain Triton	Marburg entry inh	Cruzain inh noDet	Lassa entry inh
CCc1nn(C(CC)C(=O)NCc2cccc(OC)c2)c(=O)c2cc3occc3n12 (stereo not given)	1%	-10%	7%	11%	.	.	.	.
Cn1c(=O)n(C)c2cc(N3CCCC3)c(NC(=O)Nc3ccccc3)cc21	.	-8%	.	.	-1.8%	-1%[46.1 µM]	-4%	?
COC(=O)c1ccccc1NC(=O)CN1CCC(C)CC1	-2%	-11%	-3%	1%	.	-18%[46.1 µM]	.	.
CC(C)C(NC(=O)C1CCC(C(C)(C)C)CC1)C(=O)NCCCN1CCCCC1 (stereo not given)	-2%	0%	.	-1%	.	-2%[46.1 µM]	.	2%[46.1 µM]
O=C(Cn1cc2c(n1)CCCC2)Nc1cc(-c2cccc(Cl)c2)no1	-16%	28%	-88%	16%	-5.4%	.	-11%	.
Cc1cc(=O)n(CC(C)C)c(O)c1C#N	-8%	0%	3%	-9%	-3.5%	0%	14%	25%
COCCCNC(=O)c1c(N)n(-c2cccc(S(N)(=O)=O)c2)c2nc3ccccc3nc12	-3%	0%	-36%	1%	-20%	-28%&-28%	?	-11%
O=C(CSc1ccccc1)NCCc1ccc(F)cc1	5%	37%[activator]	1%	-8%	.	.	.	.
COc1ccccc1CN1CCNC(=O)C1CC(=O)NCCCN1CCCC1=O (stereo not given)	10%	41%[activator]	-13%	-2%	.	.	.	.
COCCCNC(=S)N1CCCN(c2nc3cc(C)c(C)cc3cc2C#N)CC1	0%	23%	2%	-8%	.	-8%[46.1 µM]	.	-20%[46.1 µM]
Cn1c2ccccc2c2cnn(CC(=O)Nc3ccccc3Br)c(=O)c21	1%	-13%	-7%	0%	.	.	.	.
O=[N+]([O-])c1ccc(Nc2nc(N/N=C/c3cccc(F)c3)nc(N3CCCC3)n2)cc1	-16%	?	23%	3%	-2.9%	?	16µM*	?
Cc1nnc(-c2cnn(C)c2N)n1Cc1ccccc1	14%	4%	-4%	-9%	1.8%	-7%[46.1 µM]	11%	-4%
Cc1cc(C)cc(NCc2cc(=O)oc3cc(C)c(O)cc23)c1	-5%	?	4%	-10%	.	.	.	.
CC1=NN(C(=O)c2cc(C)nn2C)C(O)(C(F)(F)F)C1 (stereo not given)	-2%	-23%	-6%	-22%	-2.1%	?	5%	0%
COc1ccc(Br)cc1C1N2CC3(C)CN1CC(C)(C2)C3=O (stereo not given)	8%	-12%	10%	-13%	-1.2%	-3%	-1%	-7%
COC(=O)c1ccc(CN2C(=O)C(C)N(C(=O)c3c(F)cccc3F)c3ccccc32)cc1 (stereo not given)	-3%	?	-6%	-6%	.	.	.	.
Cc1cc(C(=O)NCc2cccnc2)cs1	25%	-16%	-2%	12%	1.1%	21%	0%	17%
CCSc1nc2c(c(=O)[nH]1)C(c1ccncc1)C(C(=O)OC(C)C)=C(C)N2 (stereo not given)	4%	0%	-21%	10%	0.0%	11%	0%	2%
COc1ccccc1N(CC(=O)Nc1cccnc1)S(C)(=O)=O	-1%	.	-4%	13%	0.2%	1%	7%	-9%
CCOC(=O)/C(C(C)=O)=C1\OC(=O)c2ccccc21	5%	4%	-12%	-4%	2.7%	?	2%	12%
NNC(=O)c1cccn(Cc2cccc(C(F)(F)F)c2)c1=O	-1%	-30%	14%	5%	.	14%[46.1 µM]	.	?
COc1cc(OC)c(-c2nn3c(-c4ccco4)nnc3s2)cc1OC	-3%	-5%	-44%	2%	-3.9%	-18%	?	?
CCCn1c(SCC(=O)Nc2cccc(NC(C)=O)c2)nnc1C(C)C	8%	-22%	-8%	-14%	-2.7%	?	1%	0%
CCc1nnc(NC(=O)C2Cc3ccccc3C(=O)O2)s1 (stereo not given)	-8%	0%	-69%	4%	-0.3%	.	-9%	.
N#CC1=C(N)OC2=C(C(=O)CCC2)C1c1ccncc1 (stereo not given)	6%	4%	2%	2%	1.2%	-8%	-9%	2%
CN1C(=O)S/C(=C/c2cccn2-c2cccc(C(=O)O)c2)C1=O	0%	-11%	-4%	4%	.	0%[46.1 µM]	.	24%[46.1 µM]
O=C(CSC1=NC(=O)C(c2ccccc2)C(=O)N1)Nc1cccc(Cl)c1 (stereo not given)	-1%	?	3%	-4%	-2.3%	24%[46.1 µM]	-11%	-14%
Cn1c(Oc2ccc(Cl)cc2)nc2c1c(=O)n(Cc1ccc(F)cc1)c(=O)n2C	.	16µM*	.	.	-0.8%	1%[46.1 µM]	11%	1%[46.1 µM]
CC(NC(=O)CN(c1ccc(Cl)cc1Cl)S(=O)(=O)c1ccccc1)c1ccccc1 (stereo not given)	.	1%	.	.	-5.5%	-8%[46.1 µM]	-6%	?

Some of these compounds in order of length of the SMILES, high to low:
Molecule	SARS PLpro yeast	2A StopGo	NS1 function inh	RE007 growth inh	Cruzain Triton	Marburg entry inh	Cruzain inh noDet	Lassa entry inh
Cn1c(Oc2ccc(Cl)cc2)nc2c1c(=O)n(Cc1ccc(F)cc1)c(=O)n2C	.	16µM*	.	.	-0.8%	1%[46.1 µM]	11%	1%[46.1 µM]
Cc1cc(C)cc(NCc2cc(=O)oc3cc(C)c(O)cc23)c1	-5%	?	4%	-10%	.	.	.	.
N#CC1=C(N)OC2=C(C(=O)CCC2)C1c1ccncc1 (stereo not given)	6%	4%	2%	2%	1.2%	-8%	-9%	2%

(cont.)
Molecule	SARS PLpro yeast	2A StopGo	NS1 function inh	RE007 growth inh	Cruzain Triton	Marburg entry inh	Cruzain inh noDet	Lassa entry inh
O=C(COc1ncnc2ccccc12)N1CCN(c2ccccc2)CC1	4%	-5%	-1%	4%	.	-9%[46.1 µM]	.	7%
O=C(NCCCN1CCCC1=O)c1cc(NS(=O)(=O)c2ccc(F)cc2)cc(NS(=O)(=O)c2ccc(F)cc2)c1	2%	-6%	-8%	-7%	5.3%	4%	?	4%
CCc1ccc(NC(=O)c2cc(-c3cccs3)on2)cc1	2%	68%&40%[activator]	.	-3%	-3.7%	?	-14%	?
CCCn1nc2cc(C(=O)NCc3ccccc3OC)ccc2c1OCC	4%	10%	21%	16%	-1.5%	.	-5%	.
OCCC1CN(Cc2cccn2-c2cccnc2)CCN1Cc1ccccc1 (stereo not given)	1%	6%	0%	-25%	.	?	.	7%[46.1 µM]
Cc1cc(C)cc(C(=O)NCC(=O)OCC(=O)N2CCCCC2)c1	-2%	-12%	.	10%	.	-7%[46.1 µM]	.	-20%
Cn1c(SCC(=O)Nc2nncs2)nnc1C1CC1	-1%	-23%	18%	16%	.	.	.	.
O=C(COC(=O)COc1ccc(Cl)cc1Cl)NC1CCCC1	-5%	-3%	.	-9%	.	7%	.	-1%[46.1 µM]
CN(C)c1ccc(/C=C2/C(=N\O)C3CCN2CC3)cc1	-1%	9%	-1%	-10%	.	5%[46.1 µM]	.	5%[46.1 µM]
COC(=O)c1ccc2c(=O)[nH]c(COC(=O)c3[nH]c(C)c(C(C)=O)c3C)nc2c1	-3%	?	.	6%	.	-15%[46.1 µM]	.	?
CCC(=O)Nc1cccc(-c2ccc(N3CCCCC3)nn2)c1	-4%	-36%	-3%	-14%	.	.	.	.
COC(=O)c1c(N=CN(C)C)c(C#N)c2n1CCCC2	5%	6%	4%	7%	-5.9%	28%	-4%	0%
COc1cccc(NC(=S)NC(=O)c2cccnc2)c1	1%	34%[activator]	-4%	0%	.	?	.	1%[46.1 µM]
Cc1nc(N2CCOCC2)nc(Oc2ccccc2)c1[N+](=O)[O-]	-1%	-25%	-45%	13%	.	.	.	.
CCO/N=C(\N)c1[nH]ncc1Br	0%	13%	0%	13%	.	.	.	.
CC(C)c1ccc(NC(=O)CN2C(=O)c3cccc4cccc2c34)cc1	.	-11%	.	.	1.4%	.	1%	-23%[46.1 µM]
CC(CS(=O)(=O)c1ccccc1[N+](=O)[O-])N1CCOCC1 (stereo not given)	0%	-18%	.	4%	.	4%	.	8%
O=C(c1ccco1)N(Cc1ccc2c(c1)OCO2)Cc1cc2cc3c(cc2[nH]c1=O)OCO3	-1%	?	2%	3%	.	.	.	.
Cc1nc(-n2nc(C)c(Cc3ccc4c(c3)OCO4)c2C)sc1C(=O)Nc1ccc(Cl)cc1	.	-7%	.	.	-0.4%	5%[46.1 µM]	-4%	-24%[46.1 µM]
CCOC(=O)Cn1nc(-c2ccc(Cl)cc2)ccc1=O	0%	9%	-11%	1%	-3.2%	4%	2%	20%
Cc1cc(/C=N/n2cnnc2)c(C)n1-c1ccc(OCc2ccc(F)cc2)cc1	-32%	.	-103%	9%	-15%	?	-9%	?
CN(Cc1ccccc1)C(=S)Nc1ccc2nc3n(c(=O)c2c1)CCCCC3	6%	2%	2%	-22%	.	18%[46.1 µM]	.	8%[46.1 µM]
CCCCN(C)Cc1c(C(=O)N2CCc3ccccc3C2)nc2ccc(Cl)cn12	0%	-28%	2%	-12%	.	?	.	-7%[46.1 µM]
CCN1CCN(C(=O)Cn2ncc3c4ccccc4n(Cc4ccccc4F)c3c2=O)CC1	.	-12%	.	.	-3.6%	-34%[46.1 µM]	1%	1%[46.1 µM]
COCCCNC(=S)N(Cc1cccnc1)Cc1ccc(OC)c(OC)c1	2%	-6%	-5%	-1%	0.6%	?	5%	2%
Cc1ccc(CNC(=S)Nc2cc(C)ccc2OC(F)F)cc1	-2%	8%	-9%	2%	.	-7%[14.2 µM]	.	?
Cc1ccc(-n2ncc(C(=O)NCCCN3CCN(C)CC3)c2C2CCN(C(=O)OC(C)(C)C)CC2)c(C)c1	.	?	.	.	0.2%	.	8%	?
Fc1ccc(-c2nnc(-c3ccc(F)cc3)o2)cc1	-3%	0%	1%	-4%	.	.	.	.
COCCCNCCCOc1ccc(Cl)cc1C(C)(C)C	-29%	?	-7%	-3%	2.6%	?	3%	?

Random draw from the library; any-hit rate near 4.6%.
